GLA inh pH 4.5: alpha-galactosidase A (human) inhibition, pH 4.5; P06280; purified enzyme, 4-MU-alpha-Gal fluorescence, pH 4.5; activity change, negative = inhibition, % at 105 µM; 230,000 tested, under 10 active; inconclusive = small, poorly fitted or top-dose-only inhibition, or a rising curve; inactive = flat fitted curve, though single readings scatter; no compound was filed as active;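 also: 0% = full activity with enzyme and -100% = basal without enzyme; dose as in the result columns while the protocol names 77 µM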
Rango complex inh: Rango-importin beta binding inhibition | Rango CFP/YFP FRET sensor + importin beta, 45 min | Potency, µM (top dose mostly 92.2 µM), inactives show top-dose inhibition of complex formation | hit rate 0.031% among 340,000; active = rising FRET ratio curve, often small or poorly fitted; inconclusive = mostly compound fluorescence or quenching in the first reads; inactive = flat curves in all reads;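 also: potency is read from the fitted curve at half-maximal effect; 0% = DMSO wells and 100% = buffer wells lacking importin beta; nearly all actives have a fitted effect of over 15% in size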
Target sequence (Q14974 whole entry, looked up): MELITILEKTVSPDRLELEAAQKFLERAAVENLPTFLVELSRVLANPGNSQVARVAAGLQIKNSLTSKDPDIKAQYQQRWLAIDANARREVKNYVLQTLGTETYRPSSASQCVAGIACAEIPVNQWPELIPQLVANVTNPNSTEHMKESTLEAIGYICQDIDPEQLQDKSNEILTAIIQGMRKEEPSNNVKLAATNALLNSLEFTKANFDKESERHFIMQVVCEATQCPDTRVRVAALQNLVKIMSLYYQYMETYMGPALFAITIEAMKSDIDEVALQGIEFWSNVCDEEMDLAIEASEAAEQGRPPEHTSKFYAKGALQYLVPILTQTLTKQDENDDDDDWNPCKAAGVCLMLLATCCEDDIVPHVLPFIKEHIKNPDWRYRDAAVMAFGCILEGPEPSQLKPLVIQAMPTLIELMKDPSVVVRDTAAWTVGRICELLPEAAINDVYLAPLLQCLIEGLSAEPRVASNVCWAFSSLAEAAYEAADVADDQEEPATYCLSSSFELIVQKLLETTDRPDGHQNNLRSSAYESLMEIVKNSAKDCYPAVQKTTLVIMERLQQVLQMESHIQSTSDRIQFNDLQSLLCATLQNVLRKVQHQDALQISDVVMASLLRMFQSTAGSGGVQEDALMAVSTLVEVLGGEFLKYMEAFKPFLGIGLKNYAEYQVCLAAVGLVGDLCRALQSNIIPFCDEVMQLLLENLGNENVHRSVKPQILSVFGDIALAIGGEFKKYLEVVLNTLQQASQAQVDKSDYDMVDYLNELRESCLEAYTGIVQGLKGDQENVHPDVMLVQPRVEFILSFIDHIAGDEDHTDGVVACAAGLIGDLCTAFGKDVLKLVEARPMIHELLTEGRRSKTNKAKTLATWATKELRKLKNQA
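FRET biosensor (snurportin 1 IBB flanked by EYFP and cerulean), 50 nM, with compound 5 min, then 0.125 microM importin beta in PBS, 1 mM DTT, 0.02% Tween-20, 0.1% BSA. CFP/YFP ratio read after 45 min at room temperature; pre-read flags interference.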
Rango dissoc inh: prevents RanGTP from dissociating the Rango-importin beta complex; O95149+P62826; Biochemical FRET Rango-importin beta, RanGTP-induced dissociation; Potency, µM (doses to about 46.1 µM), for the others: top-dose activity change, negative = inhibition; hit rate 0.071% among 340,000; active means falling FRET ratio curve, often poorly fitted, with flat reads before Ran was added; inconclusive means other falling curves, or compound fluorescence or quenching; inactive means flat or rising ratio curve;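 also: potency is read from the fitted curve at half-maximal effect; % of control where 0% means no effect; nearly all actives have a fitted effect of over 45% in size; -100% = wells without RanGTP and RCC1; the record marks most hits as doubtful in a second field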
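Quantitative HTS using a FRET biosensor: 0.1 uM Rango, 0.25 uM importin beta, 0.6 uM Ran, 2 mM GTP, 0.2 uM RCC1 final, PBS with DTT, Tween-20 and BSA. Post-read taken 45 min after Ran addition.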
miR-21 FLuc: raises the signal of a miR-21 reporter; 340,000 tested, under 10 active; HeLa miR-21 FLuc reporter, luciferase, 48 h; Potency, µM (doses to about 38.3 µM), for the others: at the highest dose reporter change, positive = more light; active = well fitted rising curve with a large enough effect; inconclusive = small, poorly fitted or top-dose-only effect; inactive = no such curve, though single readings can be large or run the other way;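 also: % of control where 0% means no effect; miR-21 action dims this reporter so a rising signal means less miR-21 action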
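HeLa cells stably expressing CMV-driven firefly luciferase with a downstream miR-21 binding sequence, endogenously expressing miR-21, were treated with titrations (up to about 40uM final) for 48 hours at 37 degree Celsius. Luciferase luminescence was read after lysis.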
* = called active by the depositor; u = inconclusive; x = not tested or not shown. The list is partial; the hit share may differ from the screen's.

Abbreviations: A = GLA inh pH 4.5; B = Rango complex inh; C = Rango dissoc inh; D = miR-21 FLuc
Structure: Brc1ccc(-c2nnc(SCCC3OCCCO3)o2)cc1
  A: -21.3	B: -0.3%	C: -14.7%	D: -40.5%
Structure: COc1ccc(/C=N/NC(=O)c2cccc(C(=O)N/N=C/c3ccc(OC)c(OC)c3)n2)cc1OC
  A: x	B: 5.5%	C: -10.9%	D: -1.8%
Structure: c1ccc(-c2csc3nnc(SCc4ccc5c(c4)OCCO5)n23)cc1
  A: -7.1	B: 3.4%	C: 32.8%	D: -2.3%
Structure: COc1ccc(OC)c2sc(N3CCc4ccccc4C3)nc12
  A: -36.0	B: -3.1%	C: -6.0%	D: -45.0%
Structure: COc1ccc(-c2sc3ccccc3c2/C=C/c2ccncc2)cc1
  A: x	B: 2.6%	C: 8.1%	D: x
Structure: CCc1ccc(CNc2ccc(N3CCN(C(C)=O)CC3)cc2)cc1
  A: 1.2	B: -1.7%	C: 0.8%	D: 10.8%
Structure: C=CS(=O)(=O)N(Cc1ccccc1Br)[C@H](CO)Cc1ccccc1
  A: x	B: 3.2%	C: -0.5%	D: x
Structure: COc1ccc(-c2cc(CCCC(=O)NCc3ccccn3)no2)cc1
  A: -10.5	B: u	C: -3.3%	D: -17.8%
Structure: CC(C)(C)C(=O)N1CCN(c2ccc([N+](=O)[O-])c(-n3nc(-c4ccccc4)c4ccccc4c3=O)c2)CC1
  A: -12.0	B: -3.0%	C: -7.7%	D: -1.0%
Structure: CCOc1ccc(N2CC(C(=O)N3CCCc4ccccc43)CC2=O)cc1 (centres undefined)
  A: x	B: -1.2%	C: 5.4%	D: 0.7%
Structure: CCn1c(C(=O)N2CCC(Cc3ccccc3)CC2)cc2sccc21
  A: -0.2	B: -4.9%	C: 0.6%	D: -7.5%
Structure: COc1ccccc1C(=O)N(CN1CCCC1=O)c1cccc(Cl)c1
  A: 0.5	B: 0.2%	C: 0.8%	D: -3.8%
Structure: O=C(c1[nH]ncc1-c1ccccc1)C1CO1 (centres undefined)
  A: 2.9	B: -2.1%	C: -9.9%	D: 2.8%
Structure: COc1ccc(Nc2nc(N)nc(CSC(=S)N3CCCCC3C)n2)cc1 (centres undefined)
  A: -8.0	B: -1.6%	C: 5.5%	D: -16.4%
Structure: CCn1c(C)[n+](CC(O)COCC2CC=CCC2)c2ccccc21 (centres undefined)
  A: 0.2	B: -1.0%	C: -6.8%	D: 15.6%
Structure: COc1cccc(-c2cc(C(F)(F)F)n3ncc(S(=O)(=O)c4ccccc4)c3n2)c1
  A: -6.0	B: -3.9%	C: -22.2%	D: -11.4%
Structure: Cc1ccc(-c2cc(C(=O)N/N=C/c3ccco3)n[nH]2)s1
  A: -11.1	B: -1.3%	C: 5.7%	D: -21.4%
Structure: O=C(CN1CCN(CC(=O)c2ccccc2)CC1)c1ccccc1
  A: x	B: 2.0%	C: -8.8%	D: x
Structure: COc1cc(C(=O)N/N=C2\CCS(=O)(=O)c3ccc(F)cc32)cc(OC)c1OC
  A: -10.2	B: -3.0%	C: -5.2%	D: -6.8%
Structure: CC(NC(=O)CSc1nc(C2CC2)n(-c2ccccc2)n1)c1ccco1 (centres undefined)
  A: x	B: -2.1%	C: 8.6%	D: x
Structure: CCOC(=O)C1=C(C)NC2=C(C(=O)CC(C)(C)C2)C1c1ccsc1 (centres undefined)
  A: 7.4	B: u	C: u	D: 0.8%
Structure: Cc1ccc(OCC(=O)Nc2ccc3c(c2)C(=O)NC3=O)cc1
  A: x	B: 0.9%	C: -2.9%	D: -0.4%
Structure: COc1ccc(/C=C2\SC(N3CCCCC3)=NC2=O)cc1
  A: x	B: 4.0%	C: 1.9%	D: -11.8%
Structure: CC(=O)c1ccc(NC(=O)COC(=O)Cc2ccsc2)cc1
  A: x	B: 0.0%	C: -2.9%	D: x
Structure: S=c1[nH]nc(-c2cccnc2)n1-c1ccccc1
  A: 0.6	B: 1.6%	C: 8.5%	D: -4.1%
Structure: Cc1cccc(-n2c(SCC(=O)N3CCC(C(=O)O)CC3)nc3ccccc3c2=O)c1C
  A: x	B: 4.9%	C: -13.4%	D: 2.8%
Structure: Cc1cc(C)nc(NS(=O)(=O)c2ccc(NC(=S)NC(=O)c3cccnc3)cc2)n1
  A: 6.5	B: -1.0%	C: 7.2%	D: -1.7%
Structure: O=C(COC(=O)c1ccccc1)Nc1ccc2[nH]c(=O)[nH]c2c1
  A: x	B: -1.3%	C: 7.5%	D: x
Structure: CN(CC(=O)NCCc1ccc(S(N)(=O)=O)cc1)Cc1c(F)cccc1Cl
  A: x	B: 3.5%	C: 3.4%	D: 5.5%
Structure: CCOP(=O)(c1ccccc1)C(O)c1ccccc1 (centres undefined)
  A: -7.5	B: -0.5%	C: -3.6%	D: -3.6%
Structure: CCOC(=O)C1=C(C)N(C)C(=O)NC1c1ccc(C)s1 (centres undefined)
  A: -11.9	B: 3.7%	C: -7.2%	D: -7.1%
Structure: O=c1cc(CSc2nnc(COc3ccccc3Cl)o2)nc2sccn12
  A: 0.9	B: -1.7%	C: -7.1%	D: -23.5%
Structure: Brc1cccc2sc(N3CCCC3)nc12
  A: -9.1	B: -0.8%	C: -9.2%	D: -43.0%
Structure: O=c1[nH][nH]c(-c2ccccc2)c1C=Nc1ccccc1
  A: -2.4	B: -0.3%	C: -2.5%	D: -3.8%
Structure: Cc1ccccc1NC(=S)NNC(=O)c1cccnc1
  A: -5.4	B: 3.3%	C: 16.6%	D: u
Structure: CC(=O)C(Sc1ncnc2sc3c(c12)CCCC3)C(C)=O
  A: 10.8	B: -3.0%	C: 10.6%	D: -12.2%
Structure: COc1ccc(CN2CCN(C(=O)c3cc(OC)c(OC)c(OC)c3)CC2)cc1OC
  A: 0.0	B: 3.2%	C: -15.7%	D: -5.7%
Structure: CCC1(C)Cc2c(sc3c2c(=O)n(C)c2nnc(SCCc4ccccc4)n32)CO1 (centres undefined)
  A: -11.8	B: 3.2%	C: 19.9%	D: -1.1%
Structure: COc1ccc(CCNC(=O)CC2Nc3ccccc3NC2=O)cc1 (centres undefined)
  A: 6.4	B: u	C: -15.1%	D: -22.0%
Structure: Nc1nc2c(-c3ccc(Br)cc3)nnn2c2ccccc12
  A: x	B: u	C: u	D: -62.5%
Structure: O=C(CSc1n[nH]c(-c2cc(Cl)ccc2Cl)n1)NCCN1C(=O)CSC1=O
  A: -5.1	B: 1.4%	C: -0.4%	D: -15.8%
Structure: CC(NC(=O)COC(=O)/C=C/c1ccc(Cl)cc1)c1ccccc1 (centres undefined)
  A: 4.5	B: 1.3%	C: -16.6%	D: 0.2%
Structure: N#CCSc1ncnc2c1cnn2CCO
  A: -6.0	B: -0.5%	C: -23.5%	D: 11.9%
Structure: CC(C)c1ccc(-c2csc(NC(=O)c3cccs3)c2C(=O)O)cc1
  A: -0.2	B: -2.5%	C: 0.7%	D: 21.7%
Structure: Cc1noc(C)c1CSCC(=O)NCCN1C(=O)S/C(=C\c2ccccc2F)C1=O
  A: x	B: 0.2%	C: -10.7%	D: x

Molecules from the list above that contain a Cl atom, in the order listed:
Abbreviations: A = GLA inh pH 4.5; B = Rango complex inh; C = Rango dissoc inh; D = miR-21 FLuc
Structure: COc1ccccc1C(=O)N(CN1CCCC1=O)c1cccc(Cl)c1
  A: 0.5	B: 0.2%	C: 0.8%	D: -3.8%
Structure: CN(CC(=O)NCCc1ccc(S(N)(=O)=O)cc1)Cc1c(F)cccc1Cl
  A: x	B: 3.5%	C: 3.4%	D: 5.5%
Structure: O=c1cc(CSc2nnc(COc3ccccc3Cl)o2)nc2sccn12
  A: 0.9	B: -1.7%	C: -7.1%	D: -23.5%
Structure: O=C(CSc1n[nH]c(-c2cc(Cl)ccc2Cl)n1)NCCN1C(=O)CSC1=O
  A: -5.1	B: 1.4%	C: -0.4%	D: -15.8%
Structure: CC(NC(=O)COC(=O)/C=C/c1ccc(Cl)cc1)c1ccccc1 (centres undefined)
  A: 4.5	B: 1.3%	C: -16.6%	D: 0.2%

Next results:
Abbreviations: A = GLA inh pH 4.5; B = Rango complex inh; C = Rango dissoc inh; D = miR-21 FLuc
Structure: CCC(CC)C(=O)Nc1cc(C(=O)OC)cc(C(=O)OC)c1
  A: 1.9	B: 1.3%	C: 4.3%	D: -0.9%
Structure: COc1cc(NC(=O)Cn2cnc3c(NCc4ccccc4)ncnc32)cc(OC)c1OC
  A: x	B: 0.6%	C: -5.5%	D: x
Structure: Cc1cccc(C)c1NC(=O)CNC(=O)C(C)NC(C)c1ccccc1Br (centres undefined)
  A: x	B: 6.9%	C: 4.5%	D: x
Structure: CCc1ccc(N2C(=O)c3ccc4c5c(ccc(c35)C2=O)CC4)cc1
  A: 1.5	B: -11.2%	C: -16.5%	D: -8.4%
Structure: O=C(Nc1c2c(nc3ccccc13)CCCC2)c1cccc([N+](=O)[O-])c1
  A: -14.2	B: 2.2%	C: 5.5%	D: 15.4%
Structure: CC1CCCC(NC(=O)CSc2n[nH]c(=O)n2Cc2ccccc2)C1C (centres undefined)
  A: x	B: 2.3%	C: 1.7%	D: x
Structure: COc1ccc(C)cc1S(=O)(=O)Nc1cccc(-c2cn3cccnc3n2)c1
  A: x	B: -1.2%	C: 11.5%	D: 7.8%
Structure: COc1ccc(N2CCN(C(=O)CCNS(=O)(=O)c3cccs3)CC2)cc1
  A: 6.3	B: -3.1%	C: -1.3%	D: -1.7%
Structure: C[C@H]1CC[C@@]2(O[C@@H](CCO)C[C@H](O)[C@H]2O)O1
  A: x	B: -0.6%	C: 29.2%	D: x
Structure: NS(=O)(=O)c1ccc(CCNc2ncnc3c2c(-c2ccccc2)cn3-c2ccc(F)cc2)cc1
  A: -6.4	B: -2.1%	C: 2.8%	D: 25.0%
Structure: O=C(NC(=S)Nc1ccc(CN2CCCCC2)cc1)c1cc2ccccc2o1
  A: -1.2	B: -5.4%	C: 0.9%	D: -8.0%
Structure: CC(Sc1nnnn1C1CCCC1)C(=O)Nc1cccc(S(=O)(=O)N2CCOCC2)c1 (centres undefined)
  A: x	B: -0.3%	C: 13.2%	D: x
Structure: Cc1nnc2sc(-c3cccc(F)c3)nn2c1=O
  A: x	B: -0.9%	C: 16.3%	D: -4.8%
Structure: CC(=O)Nc1ccc([C@H]2[C@H](C)CC[C@H]3C(=O)N4[C@@H](CC[C@@H](C)[C@@H]4c4ccc(NC(C)=O)cc4)C(=O)N32)cc1
  A: -3.9	B: x	C: x	D: 2.5%
Structure: CCCCn1c(CCNC(=O)CC)nc2ccccc21
  A: 15.0	B: -0.7%	C: 4.0%	D: -2.0%
Structure: S=C(NC1CCCCC1)N1CCN(C/C=C/c2ccccc2)CC1
  A: -5.7	B: -3.7%	C: 0.9%	D: 10.2%
Structure: COC(=O)CCc1c(C)c(C#N)c2nc3ccccc3n2c1N1CCCC1
  A: 5.9	B: u	C: u	D: 0.5%
Structure: COc1ccc(NC(=O)CSc2nnc(Cc3ccc(C)cc3)c(=O)n2N)cc1OC
  A: x	B: -2.6%	C: -4.0%	D: x
Structure: CCOC(=O)Cn1c(=O)c2c(nc3n2CCCCN3c2ccc(C)cc2)n(C)c1=O
  A: -2.3	B: 1.1%	C: -4.2%	D: -5.2%
Structure: Cc1ccc(CN2CCSCC2)cc1
  A: x	B: -0.1%	C: 0.1%	D: 3.0%
Structure: NNC(=O)Cn1c(SCc2ccccc2)nc2ccccc21
  A: 0.1	B: -1.9%	C: -6.4%	D: -5.3%
Structure: Cc1noc(/C=C/c2ccco2)c1S(=O)(=O)N1CCC(C(=O)NCc2ccco2)CC1
  A: 2.9	B: -1.1%	C: 6.7%	D: -3.6%
Structure: CC(=O)NCCC(=O)Nc1ccc(C(N)=O)cc1
  A: 1.3	B: 0.8%	C: -8.3%	D: -1.4%
Structure: COc1ccc(Nc2ccc([N+](=O)[O-])cc2[N+](=O)[O-])cc1
  A: -27.5	B: 0.2%	C: 8.1%	D: -3.3%
Structure: Cc1ccc(-c2cn(CCN)c(-c3ccncc3)n2)cc1
  A: x	B: -1.6%	C: 13.5%	D: x
Structure: Cc1cc(C)nc(Nc2n[nH]c(-c3ccc(C(C)(C)C)cc3)n2)n1
  A: 7.5	B: -0.7%	C: -15.2%	D: -14.2%
Structure: COc1ccc(N(CC(=O)N/N=C/c2cccnc2)S(=O)(=O)c2ccc(C)cc2)cc1OC
  A: x	B: -1.2%	C: 2.4%	D: -6.3%

Assay outcomes deposited in PubChem by National Center for Advancing Translational Sciences (NCATS).
